Rango dissoc inh = prevents RanGTP from dissociating the Rango-importin beta complex. O95149+P62826. Biochemical FRET Rango-importin beta, RanGTP-induced dissociation. Potency, µM (highest dose often 46.1 µM), without a hit: top-dose activity change, negative = inhibition. 0.071% of 340,000 active. AID 540253; active means falling FRET ratio curve, often poorly fitted, with flat reads before Ran was added; inconclusive means other falling curves, or compound fluorescence or quenching; inactive means flat or rising ratio curve;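 further: potency means the concentration at half of the fitted maximal effect; % of control where 0% means no effect; nearly all actives have a fitted effect of over 45% in size; -100% = wells without RanGTP and RCC1; the record marks most hits as doubtful in a second field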
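Rango FRET biosensor (snurportin-1 IBB flanked by N-terminal EYFP and C-terminal CFP10) at 0.1 uM, with 0.25 uM importin beta in PBS, 1mM DTT, 0.02% Tween-20, 0.1% BSA. 0.6 uM Ran, 2mM GTP and 0.2 uM RCC1 were then added for 45 min at room temperature. Inhibition read as loss of FRET rise.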
miR-21 FLuc = miR-21 reporter, rising signal. 340,000 tested, under 10 active. Potency, µM (doses to about 38.3 µM), for inactives: at the highest dose reporter change, positive = more light. HeLa miR-21 FLuc reporter, luciferase, 48 h; active = well fitted rising curve with a large enough effect; inconclusive = small, poorly fitted or top-dose-only effect; inactive = no such curve, though single readings can be large or run the other way;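 further: % of control where 0% means no effect; miR-21 action dims this reporter so a rising signal means less miR-21 action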
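HeLa cells endogenously expressing miR-21, stably carrying CMV-driven firefly luciferase with a downstream miR-21 binding site, 2000 cells/well. Titrations up to approximately 40 uM, 48 hours; luciferase luminescence read.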
GLA inh pH 4.5 = inhibitors of human alpha-galactosidase A at pH 4.5; purified enzyme, 4-MU-alpha-Gal fluorescence, pH 4.5; activity change, negative = inhibition, % at 105 µM; 230,000 tested, under 10 active; AID 1467; inconclusive = small, poorly fitted or top-dose-only inhibition, or a rising curve; inactive = flat fitted curve, though single readings scatter; no compound was filed as active;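 further: 0% = full activity with enzyme and -100% = basal without enzyme; dose as in the result columns while the protocol names 77 µM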
Target sequence (P06280 whole entry, looked up): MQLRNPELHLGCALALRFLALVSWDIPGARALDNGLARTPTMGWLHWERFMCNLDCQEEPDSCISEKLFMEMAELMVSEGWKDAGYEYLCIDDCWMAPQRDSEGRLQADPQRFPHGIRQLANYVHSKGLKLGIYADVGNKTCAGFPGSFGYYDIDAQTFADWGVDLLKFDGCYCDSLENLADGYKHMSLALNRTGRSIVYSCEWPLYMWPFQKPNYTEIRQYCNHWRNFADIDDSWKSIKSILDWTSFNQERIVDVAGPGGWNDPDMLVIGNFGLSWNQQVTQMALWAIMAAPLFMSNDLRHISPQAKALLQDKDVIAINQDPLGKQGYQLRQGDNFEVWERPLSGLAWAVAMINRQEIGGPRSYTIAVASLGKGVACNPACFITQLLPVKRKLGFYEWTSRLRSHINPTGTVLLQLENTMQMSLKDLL
Rango-impB inh = prevents formation of the Rango-importin beta complex; 0.031% of 340,000 active; Potency, µM (top dose mostly 92.2 µM), without a hit: at the top dose inhibition of complex formation; Rango CFP/YFP FRET sensor + importin beta, 45 min; active = rising FRET ratio curve, often small or poorly fitted; inconclusive = mostly compound fluorescence or quenching in the first reads; inactive = flat curves in all reads;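 further: potency means the concentration at half of the fitted maximal effect; 0% = DMSO wells and 100% = buffer wells lacking importin beta; nearly all actives have a fitted effect of over 15% in size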
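FRET biosensor Rango (snurportin 1 IBB between N-terminal EYFP and C-terminal Cerulean), 50 nM in PBS/1 mM DTT/0.02% Tween-20/0.1% BSA, preincubated 5 min RT with compound; 0.125 microM importin beta added, 45 min RT, CFP/YFP FRET ratio read.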
* = called active by the depositor; ? = inconclusive; . = not tested or not shown; & = joins results of further samples. Some of the compounds tested; rates above refer to the full screens.

#	Rango dissoc inh	miR-21 FLuc	GLA inh pH 4.5	Rango-impB inh	SMILES
1	-13.1%	-30.3%	-17.1	-0.5%	O=C(NNC(=S)Nc1ccc(F)c(Cl)c1)c1ccccc1Br
2	7.1%	-27.1%	1.0	0.6%	O=C1[C@@H]2Cc3ccccc3CN2C(=O)N1c1cccc(F)c1
3	0.3%	-4.4%	-2.8	1.7%	C/C(=N\NS(C)(=O)=O)c1ccccc1
4	11.8%	0.2%	-21.4	0.5%	COc1ccc(CN(Cc2cc3cccc(C)c3n3nnnc23)C(=O)N2CCOCC2)cc1
5	-8.2%	-13.2%	.	-1.8%	CC(=O)c1ccc(NS(=O)(=O)c2ccc3c(c2)N(C(C)=O)CCO3)cc1
6	?	0.4%	-8.6	?	CN1C(=O)/C(=C/c2ccc3c(c2)OCO3)N=C1c1ccccc1
7	-7.2%	-11.3%	-2.9	-4.4%	Cc1ccc(-c2nnc(SCC(=O)CC(=O)Nc3ccccc3)n2C)cc1
8	-13.6%	-7.6%	7.2	3.2%	C=CCNC(=S)NNC(=O)c1ccc(Br)cc1
9	7.8%	0.6%	.	1.3%	COc1ccc(S(=O)(=O)c2c(O)c3ccc(C(=O)Nc4cccc(F)c4)cc3[nH]c2=O)cc1
10	?	-4.7%	8.7	11.3%	CN(CCc1ccccn1)C(=S)NC(=O)c1ccco1
11	-27.1%	-0.4%	.	5.1%	Cc1ccc(COC(=O)c2ccc3ccccc3n2)cc1
12	0.2%	-33.1%	-6.5	-0.3%	NNc1nc2sc3c(c2c(=O)n1-c1ccccc1)CCCC3
13	-8.3%	-1.5%&-1.6%	.	0.6%	O=C1Cc2cc(S(=O)(=O)N3CCN(c4cccc(Cl)c4)CC3)ccc2N1
14	3.1%	.	.	1.2%	Cc1cccc(C)c1OCCOC(=O)c1cccc(S(=O)(=O)N2CCOCC2)c1
15	1.3%	.	.	-5.1%	Cc1cc(C)cc(OCC(=O)Nc2ccc(N3CCOCC3)cc2N2CCOCC2)c1
16	-0.1%	5.7%	.	-2.2%	COc1ccc(Br)cc1CN1CCN(Cc2c[nH]c3ccccc23)CC1
17	-1.0%	-45.9%	.	13.2%	COc1cccc(NC(=O)Nc2ccc3c(c2)OCO3)c1
18	22.0%	.	.	-1.4%	CCN(CC)S(=O)(=O)c1ccc(C(C)NCC(=O)Nc2ccccc2C(=O)NC2CC2)cc1 (centres undefined)
19	-3.2%	?	0.3	1.6%	O=C1C(Cl)=C(Nc2ccc(O)cc2)C(=O)c2ccccc21
20	5.2%	-2.9%	-2.7	0.3%	CCOC(=O)NC(Nc1nc2ccccc2s1)(C(=O)OCC)C(F)(F)F (centres undefined)
21	-3.1%	-4.4%	8.1	?	Cc1cccc(C)c1NC(=O)C(NC=O)c1ccc(N(C)C)cc1 (centres undefined)
22	-18.1%	5.6%	.	-3.1%	COc1cc(C)c(CN2CCC(Oc3ccc(C(=O)N4CCCC4)cc3)CC2)cc1C
23	-0.2%	-1.1%	4.1	-1.3%	Cc1ccc(/C=N\NC(=O)Cn2c(C)nc3ccccc32)o1
24	14.8%	.	.	-1.0%	O=C(NCc1ccccc1CN1CCCC1)C1CCN(S(=O)(=O)c2ccc(Cl)cc2)CC1
25	-6.7%	3.9%	-0.5	0.1%	O=C(Nc1ccc(C(=O)N2CCOCC2)cc1)c1cccc([N+](=O)[O-])c1
26	15.0%	.	.	-0.1%	Cc1cc(C)c(C(=O)COC(=O)C2CCN(c3ccc(C(F)(F)F)cn3)CC2)cc1C
27	0.2%	10.0%	-5.2	-3.8%	O=C(CSC1=NNC(c2ccccn2)S1)Nc1ccc(C(F)(F)F)cc1 (centres undefined)
28	-6.7%	4.1%	.	0.1%	CCS(=O)(=O)Nc1cc2c3c(c1)CCN3C(=O)CC2
29	1.5%	-2.1%	.	-0.2%	O=C(CSc1ccc(-c2ccco2)nn1)Nc1cccc(F)c1
30	17.4%	0.4%	.	4.6%	COc1ccc(C2(c3ccc(OC)cc3)NC(=O)N(CC(=O)NCC(F)(F)F)C2=O)cc1

13 neighbouring records from above, quoted:
#	Rango dissoc inh	miR-21 FLuc	GLA inh pH 4.5	Rango-impB inh	SMILES
15	1.3%	.	.	-5.1%	Cc1cc(C)cc(OCC(=O)Nc2ccc(N3CCOCC3)cc2N2CCOCC2)c1
16	-0.1%	5.7%	.	-2.2%	COc1ccc(Br)cc1CN1CCN(Cc2c[nH]c3ccccc23)CC1
17	-1.0%	-45.9%	.	13.2%	COc1cccc(NC(=O)Nc2ccc3c(c2)OCO3)c1
18	22.0%	.	.	-1.4%	CCN(CC)S(=O)(=O)c1ccc(C(C)NCC(=O)Nc2ccccc2C(=O)NC2CC2)cc1 (centres undefined)
19	-3.2%	?	0.3	1.6%	O=C1C(Cl)=C(Nc2ccc(O)cc2)C(=O)c2ccccc21
20	5.2%	-2.9%	-2.7	0.3%	CCOC(=O)NC(Nc1nc2ccccc2s1)(C(=O)OCC)C(F)(F)F (centres undefined)
21	-3.1%	-4.4%	8.1	?	Cc1cccc(C)c1NC(=O)C(NC=O)c1ccc(N(C)C)cc1 (centres undefined)
22	-18.1%	5.6%	.	-3.1%	COc1cc(C)c(CN2CCC(Oc3ccc(C(=O)N4CCCC4)cc3)CC2)cc1C
23	-0.2%	-1.1%	4.1	-1.3%	Cc1ccc(/C=N\NC(=O)Cn2c(C)nc3ccccc32)o1
24	14.8%	.	.	-1.0%	O=C(NCc1ccccc1CN1CCCC1)C1CCN(S(=O)(=O)c2ccc(Cl)cc2)CC1
25	-6.7%	3.9%	-0.5	0.1%	O=C(Nc1ccc(C(=O)N2CCOCC2)cc1)c1cccc([N+](=O)[O-])c1
26	15.0%	.	.	-0.1%	Cc1cc(C)c(C(=O)COC(=O)C2CCN(c3ccc(C(F)(F)F)cn3)CC2)cc1C
27	0.2%	10.0%	-5.2	-3.8%	O=C(CSC1=NNC(c2ccccn2)S1)Nc1ccc(C(F)(F)F)cc1 (centres undefined)

Next compounds follow.
#	Rango dissoc inh	miR-21 FLuc	GLA inh pH 4.5	Rango-impB inh	SMILES
31	-15.2%	.	.	3.1%	Cc1ccc(S(=O)(=O)Nc2c(O)ccc3ccccc23)cc1
32	8.6%	-6.8%	-0.4	0.3%	O=C(NCCc1cn2ccsc2n1)C1CCCCC1
33	-16.5%	.	.	2.8%	COc1ccc(-c2noc3c2-c2nc(-c4ccc(Br)cc4)sc2CC3)cc1
34	2.2%	-9.4%	4.7	-2.0%	CC(C)N1CCN(Cc2cccc(-n3cccn3)c2)CC1CCO (centres undefined)
35	-7.5%	0.1%	0.1	-2.6%	Cn1nc(C(=O)Nc2ccc3c(c2)OCCO3)cc1C(=O)O
36	-5.9%	10.0%	.	0.3%	CCCC(=O)NC(c1ccccc1)c1c(O)ccc2ccccc12 (centres undefined)
37	7.1%	-2.5%	-0.9	-1.5%	CC(=O)c1c(N2CCC(C(N)=O)CC2)nc(=S)n(-c2ccccc2)c1C
38	-15.0%	3.2%	.	2.0%	COc1ccc(-n2nc(C(=O)NCC(=O)NC3CCCC(C)C3C)c3ccccc3c2=O)c(OC)c1 (centres undefined)
39	27.8%	0.0%	.	-2.9%	O=S1(=O)CCOCCCN1Cc1ccccc1Br
40	-14.1%	-43.3%	1.6	?	COc1ccccc1/C=C1\Cc2ccccc2C1=O
41	-14.2%	-17.3%	?	-0.3%	O=C1NC(c2ccccc2)=C(c2ccc3ccccc3n2)C(c2ccccc2)N1 (centres undefined)
42	8.5%	-0.1%	.	3.3%	Cc1cccc(NC(=O)CCN2CCC(C)CC2)c1
43	0.5%	-62.5%	1.9	3.3%	CCCn1nnc(NC(=O)c2ccc3ccccc3c2)n1
44	0.6%	.	.	0.2%	COc1ccc(CNC(=O)COC(=O)C2(C)CC2(Cl)Cl)cc1 (centres undefined)
45	1.4%	-47.4%	-15.9	4.1%	CCOC(=O)c1cnc2c(N=Nc3ccccc3)c(N)nn2c1N
46	-12.6%	-1.4%	-1.9	?	CCCc1[nH]nc2c1C(CCc1ccccc1)C(C#N)=C(N)O2 (centres undefined)
47	1.0%	2.0%	.	5.7%	CN1CCN(c2ccccc2NC(=O)Cn2ncc3c([nH]c4ccccc43)c2=O)CC1
48	-7.0%	-4.7%	1.4	-0.4%	Cn1cc(Cl)c(/C=C(\C#N)S(=O)(=O)c2ccccc2)n1
49	19.0%	-0.2%	-11.1	5.2%	COc1ccc(/C(O)=C2/C(=O)C(=O)N(CCCC(=O)O)C2c2ccc(OC)c(OC)c2)cc1 (centres undefined)
50	-4.4%	-0.3%	.	-1.6%	Cc1cc(OCC(=O)NCCCN2CCOCC2)c2c(C)cc(=O)oc2c1
51	-2.7%	8.0%	-6.5	-1.1%	CCCCNC(=O)c1cc2cccc([N+](=O)[O-])c2[nH]1
52	2.7%	10.6%	-3.9	0.2%	COc1cc(/C=C/C(=O)Nc2ccncc2)cc(OC)c1OC
53	1.8%	-3.6%	-21.9	-1.3%	Cc1cc(C)n(C(=O)CSc2ccc(Cl)cc2)n1
54	0.2%	-9.9%	-4.0	3.7%	Cc1cccc(Nc2nc(N)nc(CN3CCN(Cc4ccc5c(c4)OCO5)CC3)n2)c1
55	0.2%	-1.1%	-5.7	0.8%	Cc1ccc(CNC(=O)C2CCC(=O)N2CCc2ccccc2)cc1 (centres undefined)
56	-4.3%	?	-1.7	-0.9%	O=C(Oc1nsnc1N1CCCCC1)N1CCOCC1
57	-6.5%	-25.2%	10.9	-1.7%	Cc1noc(C)c1CSc1nc2ccccc2n1C
58	3.4%	0.1%	.	-1.9%	COc1cccc(N(CC(=O)NC2CCCCCC2)S(=O)(=O)c2ccccc2)c1
59	-2.1%	-5.4%	-5.3	-1.0%	NC(=O)c1coc(-c2ccccc2)n1
60	12.9%	-5.5%	-9.5	1.5%	COc1ccc(NC(C)=O)cc1CNC(=O)COc1c(C)c(C)cc(C)c1C
61	2.3%	18.6%	-1.0	-1.4%	O=C(N/N=C/c1cccnc1)c1cc(-c2ccccc2OCc2ccccc2)n[nH]1
62	0.1%	-3.4%	-24.9	-0.1%	Cc1sc2ncn(CC(=O)NCc3ccco3)c(=O)c2c1-c1ccccc1
63	0.2%	0.0%	-7.4	1.3%	COCCOC(=O)C1=C(C)OC(N)=C(C#N)C1c1ccco1 (centres undefined)
64	?	-65.0%	-4.6	?	CCCCOC(=O)Nc1ccc(C(C)C)cc1
65	-16.4%	.	.	7.8%	CC(NC(=O)c1cc2c(=O)n(C)c3ccccc3c2n1C)c1ccc2c(c1)OCCO2 (centres undefined)
66	-9.8%	14.8%	.	9.7%	O=C(NCCc1ccccc1)c1coc(=O)c(Br)c1
67	1.2%	12.2%	1.5	0.2%	CCNC(=S)N(Cc1ccc(OC)cc1)C1CC(=O)N(c2ccc(OCC)cc2)C1=O (centres undefined)
68	2.9%	15.0%	-16.0	-0.8%	O=Cc1ccccc1OCc1nnsc1Cl
69	-1.1%	-2.7%	-17.0	-0.6%	Fc1ccc(Oc2cc(N3CCOCC3)nc(-c3ccccc3)n2)c(F)c1
70	4.5%	.	.	-2.3%	Cc1cc(C)cc(OCC(=O)Nc2nc(-c3ccccn3)cs2)c1
71	-0.5%	5.1%	.	1.5%	CC(NC(=O)c1cc(F)c(F)cc1Cl)C1CC2CCC1C2 (centres undefined)
72	-0.1%	4.0%	5.2	-1.4%	O=C(CO)N/N=C/c1ccccc1F
73	-13.1%	-30.9%	-5.2	-2.6%	CCN(CC)c1ccc(/C=N/NC(=O)c2ccoc2C)cc1
74	0.3%	.	.	-0.2%	CN(C(=O)COC(=O)c1cc(S(=O)(=O)N(C)C)ccc1Cl)C1CCS(=O)(=O)C1 (centres undefined)
75	-2.0%	-24.3%	-5.3	-2.1%	O=C(Cc1cccs1)N/N=C/c1ccc(OCc2ccccc2)cc1
76	-3.9%	4.5%&-32.0%	.	6.6%	Cc1nn(CC(=O)N2CCN(c3cccc(C(F)(F)F)c3)CC2)c(=O)c2cccn12

Source: PubChem BioAssay
